Screening results as filed in PubChem BioAssay.
Cruzain Triton: blocks cruzain activity in presence of Triton detergent; purified cruzain, Z-FR-AMC fluorescence, 0.01% Triton; Potency, µM, for inactives: max response, negative = inhibition, hits mostly inhibitors; 0.43% of 200,000 active;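 also: plate controls were neutral wells for no effect and buffer without enzyme for full effect; nearly all actives have a fitted effect of over 40% in size; top concentration of the series not given in the record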
Target sequence (P25779 123-467 limits assumed): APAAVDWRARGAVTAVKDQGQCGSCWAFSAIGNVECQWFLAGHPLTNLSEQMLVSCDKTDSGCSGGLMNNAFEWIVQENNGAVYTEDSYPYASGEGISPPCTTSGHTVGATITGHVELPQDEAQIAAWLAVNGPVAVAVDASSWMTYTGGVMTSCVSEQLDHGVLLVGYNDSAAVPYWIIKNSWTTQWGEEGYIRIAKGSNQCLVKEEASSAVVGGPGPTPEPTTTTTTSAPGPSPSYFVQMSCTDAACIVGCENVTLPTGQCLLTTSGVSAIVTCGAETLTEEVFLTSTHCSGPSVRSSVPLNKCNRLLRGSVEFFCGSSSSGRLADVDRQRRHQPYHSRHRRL
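Read-out: AMC fluorescence (360 nm excitation, 450 nm emission), four reads over 2 min, first-to-third difference used. Conditions: cruzain 1.5 nM, Z-FR-AMC 2 uM, pH 5.5 acetate, 5 mM DTT, 0.01% Triton X-100.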
Lassa entry inh: Lassa virus entry inhibition; Lassa virus pseudotype entry inhibition, cell reporter; control for the full effect not named in the record; Potency, µM (titrated, usually from 37.9 µM), for inactives: top-dose activity change, negative = inhibition, usual class: inhibitors; 1.2% of 300,000 active; active means well fitted inhibition curve with a large enough effect; inconclusive means small, poorly fitted or top-dose-only effect, or effect the other way; inactive means flat fitted curve, though single readings scatter; tested in HEK293 cells; also: % is scaled to controls: 0 for no effect and ±100 for the full control effect; nearly all actives have a fitted effect of over 50% in size; luciferase read-out
StopGo reporter: lowers the luciferase signal of an FMDV 2A StopGo reporter. human cells with a luciferase reporter of 2A StopGo recoding; control for the full effect not named in the record. Potency, µM (top dose mostly 57.9 µM), inactives show top-dose signal change, negative = less light. 1.2% of 410,000 active; active = well fitted falling curve with a large enough effect; inconclusive = small, poorly fitted or top-dose-only effect; inactive = no such curve, though single readings can be large or run the other way; tested in HEK293T cells; also: % is scaled to controls: 0 for no effect and ±100 for the full control effect; nearly all actives have a fitted effect of over 45% in size; luciferase light after 4 h
SARS PLpro yeast: blocks SARS-CoV papain-like protease in a yeast assay; S. cerevisiae expressing SARS-CoV PLpro, growth rescue; control for the full effect not named in the record; Potency, µM (highest dose often 32.9 µM), for the others: at the highest dose activity, positive = growth rescue; 0.19% of 330,000 active; active means well fitted rising curve with a large enough effect; inconclusive means small, poorly fitted or top-dose-only effect; inactive means no such curve, though single readings can be large or run the other way; also: 0% is about no effect; nearly all actives have a fitted effect of over 55% in size; growth read by luminescence after 48 h
MARV entry inh: blocks Marburg virus binding to or entry into cells; Marburg virus pseudotyped entry inhibition, cell reporter; control for the full effect not named in the record; about a third of the inactives were read at about 46 µM; Potency, µM (doses to about 37.8 µM), for inactives: at the highest dose activity change, negative = inhibition, usual class: inhibitors; 1.8% of 300,000 active; AID 540276; active = well fitted inhibition curve with a large enough effect; inconclusive = small, poorly fitted or top-dose-only effect, or effect the other way; inactive = flat fitted curve, though single readings scatter; tested in HEK293 cells; about a fifth of its hits are not listed in these tables; also: % is scaled to controls: 0 for no effect and ±100 for the full control effect; luciferase read-out
Cruzain noTriton: blocks cruzain activity in detergent-free assay | purified cruzain, Z-FR-AMC fluorescence, no detergent | Potency, µM, for the others: max response, negative = inhibition, actives largely listed as inhibitors | 2.3% of 200,000 active | AID 1476;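 also: plate controls were enzyme without inhibitor for no effect and buffer without enzyme for full effect; nearly all actives have a fitted effect of over 40% in size; top concentration of the series not given in the record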
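Purified cruzain at 1.5 nM, pre-incubated 15 min with compound at room temperature in 100 mM sodium acetate pH 5.5, 5 mM DTT, 0.00005% Triton X-100. Reaction started with 2 uM Z-FR-AMC; AMC fluorescence increase over 60 s gives rate.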
NS1 function inh: inhibitors of influenza NS1 protein function; S. cerevisiae slowed by influenza A NS1, growth recovery by OD600; AID 2326; Potency, µM (series often up to 46.1 µM), without a hit: at the top dose activity, positive = more growth; 0.4% of 270,000 active; active means well fitted rising curve with a large enough effect; inconclusive means small, poorly fitted or top-dose-only effect; inactive means no such curve, though single readings can be large or run the other way; also: nearly all actives have a fitted effect of over 50% in size
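Recovery from NS1-induced slow growth read by OD600 in budding yeast switched to galactose assay medium (pH 6.0, -URA) at 1:100 dilution. Compound 23 nl per well; the matching strain lacking NS1 serves as control.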
RE007 growth inh: less growth of the S. pombe RE007 Vpr strain | AID 651644 | 0.21% of 360,000 active | S. pombe RE007 Vpr strain, BacTiter-Glo ATP luminescence, 24 h; control for the full effect not named in the record | Potency, µM (top dose mostly 92.2 µM), inactives show top-dose activity change, negative = less growth; active = well fitted falling curve with a large enough effect; inconclusive = small, poorly fitted or top-dose-only effect; inactive = no such curve, though single readings can be large or run the other way;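 also: % is scaled to controls: 0 for no effect and ±100 for the full control effect; nearly all actives have a fitted effect of over 50% in size; the assay follows cell death caused by Vpr and the record does not say whether a fall means rescue or toxicity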
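Fission yeast strain RE007, carrying one chromosomally integrated HIV-1 vpr copy, was seeded at OD 0.01 in PMG+AL medium with 23 nL pinned compound. After 24 h at 30 °C and 99% humidity, viability was read by BacTiter-Glo luminescence.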
* marks the source's active call; other numbers are inactive results; ? = inconclusive; . = not tested or not shown; [ ] = another dose, or the depositor's remark. Unless noted, calls follow the shape of the dose curve; as a rule, active = well fitted curve in the direction sought with a large enough effect; inconclusive = small, poorly fitted or top-dose-only effect, or another doubt; inactive = no such curve, though single readings can be large; an effect the other way counts as inactive or inconclusive. Potency is read from the fitted curve at half-maximal effect. Rows are unselected, and some 4.6% of all compounds hit somewhere here.

Each structure is followed by: Cruzain Triton | Lassa entry inh | StopGo reporter | SARS PLpro yeast | MARV entry inh | Cruzain noTriton | NS1 function inh | RE007 growth inh
COc1ccc(S(=O)(=O)O/N=C2\CCSc3ccc(C)cc32)cc1
 : -4.9% | -1% | -17% | 6% | -23% | -22% | -3% | -24%
CCNC(=S)N1CCc2ccccc2C1
 : . | 2% | 5% | -1% | 17%[46.1 µM] | . | 2% | -13%
CC(NC(=O)c1ccccc1F)c1nnc(SCC(=O)Nc2nccs2)n1C (stereo not drawn)
 : . | 1% | -1% | -3% | -3%[46.1 µM] | . | 0% | -4%
Cc1ccc(S(=O)(=O)c2nc(-c3ccco3)oc2SCC(=O)Nc2ccc(F)cc2)cc1
 : -4.7% | -4%[46.1 µM] | 15% | . | 12%[46.1 µM] | -5% | . | .
Nc1ncnc2c1ncn2[C@@H]1O[C@H](CNS(=O)(=O)c2cc3ccccc3s2)[C@@H](O)[C@H]1O
 : . | . | -20% | 18% | -6% | . | . | 6%
CS(=O)(=O)N(CC(=O)N1CCCC1)c1ccc(Cl)c(Cl)c1
 : 3.4% | -21% | 13% | -4% | 16% | 7% | 1% | -15%
CC(=O)CC(=O)C1C(=O)N(C)C(=O)N(C)C1=O
 : . | 4% | -11% | 0% | 12% | . | . | 6%
CC12CC3CC(C)(C1)CC(C(=O)NCc1cccnc1)(C3)C2
 : . | 4% | -22% | -6% | -2% | . | 1% | 38%
O=C(CCCc1ccccc1)NCCc1cnc[nH]1
 : . | . | -6% | 2% | . | . | 1% | -6%
COc1cc(NC(=O)c2cc(OC)c(OC)c(OC)c2)ccc1NC(=O)c1cccs1
 : . | -27% | -18% | 2% | -17% | . | 17% | 1%
O=C(NC1CCCCCC1)C1CCN(S(=O)(=O)N2CCC3(CC2)OCCO3)CC1
 : 5.5% | 7% | -4% | 0% | -2% | 10% | 0% | 3%
NS(=O)(=O)c1ccc(NC(=O)COC(=O)c2cc3ccccc3oc2=O)cc1
 : . | . | ? | -1% | . | . | 0% | 4%
CC1(C)CC(=O)C2=C(C1)OC(N)=C(C#N)C2c1ccsc1 (stereo not drawn)
 : -0.4% | 11% | -23% | 2% | 0% | -6% | -1% | -7%
CCOCCCNC(=O)C(NC(=O)Cc1cccs1)c1ccccc1 (stereo not drawn)
 : . | -1% | 4% | 1% | 21% | . | . | -9%
COc1ccc(C)cc1N(C(=O)c1ccc(C#N)cc1)C1=NC(C)(C)CS1
 : . | . | -17% | -1% | . | . | -2% | -10%
CCOC(=O)c1c(C)[nH]c(C(=O)NCc2ccccc2OC)c1C
 : -0.9% | . | . | -3% | 0% | 5% | -9% | .
O=C(Nc1ccc(NC(=S)NC(=O)c2ccccc2F)cc1)c1cccs1
 : . | ? | -20% | -14% | ? | . | . | 10%
CC1CCN(c2nc(-c3ccccc3O)nc3ccccc23)CC1
 : -2.7% | -4% | -15% | 2% | -23% | -8% | 2% | -12%[3.69 µM]
CCCOC1CCCN(C(=O)c2ccc(OC3CCN(C(=O)COC)CC3)cc2)C1 (stereo not drawn)
 : . | ? | -2% | 2% | 30% | . | 5% | 5%
COc1ccc(Nc2cc(Nc3cccc(OC)c3)ncn2)cc1
 : . | 2% | 39%[activator] | 1% | -9% | . | -3% | -8%
O=C(O)c1ccc(CNCc2ccc(Cl)cc2)s1
 : -1.1% | 11%[46.1 µM] | 5% | . | -10%[46.1 µM] | 16% | . | .
CC(=O)c1ccc(N2CCCC2)c(F)c1
 : 0.3% | . | . | -2% | 2% | -3% | -8% | .
COc1cccc(/C=N/NC(=O)C(=O)NCc2cccnc2)c1O
 : -4.6% | -7% | 6% | ? | -16% | -6% | 0% | -10%
O=S(=O)(c1ccc(NC(=S)NCCC(c2ccccc2)c2ccccc2)cc1)N1CCOCC1
 : -12% | 3.5µM* | ? | 13% | 10µM* | 25µM* | 14µM* | 12%
Fc1cccc(-n2ncc3c2ncn2nc(Cc4ccccc4)nc32)c1
 : -1.0% | 1%[46.1 µM] | 9% | . | 7%[46.1 µM] | -8% | . | .
NC(N)=Nc1ccc2[nH]c3c(c2c1)C[C@@]1(O)[C@H]2Cc4ccc(O)c5c4[C@@]1(CCN2CC1CC1)[C@H]3O5
 : 5.8% | 2.3µM* | ? | . | 26µM* | 7% | -11% | ?
CCOC(=O)Nc1ccc2c(c1)nc1n2CCN(CCOC)C1
 : . | 23%[46.1 µM] | 3% | 2% | ? | . | -3% | 12%
CC1([N+](=O)[O-])COP(=O)(Nc2ccc(Cl)cc2)OC1 (stereo not drawn)
 : . | ? | 9% | . | -4% | . | . | -10%
COc1ccccc1NC(=O)N1CCCC1C(=O)Nc1ccc2c(c1)OCO2 (stereo not drawn)
 : 0.1% | -14% | 0% | 9% | ? | 1% | -4% | 4%
Nc1cc(=O)[nH]c(SCC(=O)Nc2ncc(C(F)(F)F)cc2Cl)n1
 : . | -1% | 9% | 1% | -2%[46.1 µM] | . | 3% | 4%
COc1ccccc1C1SCCN1C(=O)c1ccc([N+](=O)[O-])cc1 (stereo not drawn)
 : -1.3% | 4% | -14% | 19% | -1% | 3% | 8% | -8%
Cc1cc(C)c2c(=O)n(CC(=O)Nc3cccc(F)c3)sc2n1
 : . | . | -19% | -5% | . | . | -76% | -16%
CCCCC(=O)N1CCN(c2nc3ccc(F)cc3s2)CC1
 : . | . | -19% | 0% | . | . | -25% | -10%
Cc1ccc(CN(C)C(=O)c2cccc(S(=O)(=O)N3CCN(c4ccccc4)CC3)c2)cc1
 : . | ? | ? | . | ? | . | . | 1%
COc1cc(OC)cc(C(=O)OC/C(O)=C(\C#N)c2nc3ccccc3[nH]2)c1
 : . | . | -26% | -2% | . | . | 6% | 11%
CCOC(=O)c1sc(=S)n(C)c1NC(=O)c1ccccc1
 : -6.7% | 0% | ? | 19% | -5% | -7% | 0% | -12%
CC(Sc1nncn1C)C(=O)NCc1ccc2c(c1)OCO2 (stereo not drawn)
 : . | 0% | 5% | 2% | -20%[46.1 µM] | . | . | 2%
Cn1c(N)c(C(=O)COC(=O)Cc2ccc(F)cc2)c(=O)n(C)c1=O
 : . | 0% | -5% | -2% | -3%[46.1 µM] | . | . | -1%
C=CCC1(CC=C)CCCN1C(=O)c1cc(COc2cccc(OC)c2)on1
 : . | . | -24% | -4% | . | . | -14% | -6%
C=CCNC(=O)c1cc(-c2cccnc2)nc2ccccc12
 : . | 17%[46.1 µM] | -9% | 1% | -5%[46.1 µM] | . | 2% | -22%
O=C(NCc1ccc(F)cc1)c1ccc(Cl)c(NC2=NC3CS(=O)(=O)CC3S2)c1 (stereo not drawn)
 : . | . | -18% | 0% | . | . | 4% | 8%
O=C(Nc1ccccc1)c1nn(-c2cccc(C(F)(F)F)c2)ccc1=O
 : . | . | -9% | 0% | . | . | 3% | 0%
O=[N+]([O-])c1ccc(C=NNC(=S)Nc2ccc(F)cc2)cc1
 : . | 10%[46.1 µM] | 12% | . | -25%[46.1 µM] | . | . | 6%
CN(Cc1ccccc1)C(NC(=O)c1ccccc1)C(Cl)(Cl)Cl (stereo not drawn)
 : -5.6% | 21µM* | -21% | 4% | -28% | 17% | 11% | 4%
CC1=NN(c2ccccc2)C(=O)C1N=Nc1ccccc1 (stereo not drawn)
 : -6.3% | ? | 42%[activator] | -10% | 5% | -7% | -6% | 0%
CCCC1(C(=O)OC)NC(c2cc(OC)c(OC)c(OC)c2)C2C(=O)N(CC)C(=O)C21 (stereo not drawn)
 : -2.8% | 14% | -4% | -3% | -7% | 15% | -5% | 13%
CC(=NCCC1=CCCCC1)c1c(O)n(-c2ccccc2)c(=O)[nH]c1=O
 : . | -24% | -12% | 1% | -1%[46.1 µM] | . | 0% | 21%
O=C(Cn1c(COc2ccccc2)nc2ccccc21)Nc1cc(Cl)ccc1Cl
 : 0.8% | -17% | -20% | 19% | -25% | -25% | 5% | 14%
Cc1ccc(C)c(OCC(O)CNC2CCCC2)c1 (stereo not drawn)
 : . | . | -7% | 0% | . | . | 6% | 2%
CCc1ccccc1NC(=O)C(C)n1nc([N+](=O)[O-])c(Br)c1C (stereo not drawn)
 : 6.0% | -11% | . | 5% | -6% | 6% | 5% | 11%
COc1ccc(OC)c(-n2c(=S)[nH]c3cc(C(=O)N4CCC(C(N)=O)CC4)ccc3c2=O)c1
 : 0.3% | 17% | -5% | 2% | 29% | 5% | -1% | 22%
COC(=O)Cc1c(C)c2ccc3c(c2oc1=O)CN(Cc1ccccc1OC)CO3
 : -2.3% | -4%[46.1 µM] | -22% | . | ? | -5% | . | .
COc1ccc(N(CC(=O)N/N=C(\C)c2ccc(C)cc2)S(=O)(=O)c2ccccc2)cc1
 : . | -2% | 14% | 0% | 7%[46.1 µM] | . | 2% | -7%
Cc1cccc(C(=O)NC(=S)Nc2ccccc2C(F)(F)F)c1
 : -7.1% | 4% | -3% | 13% | ? | 8% | 10% | -5%
C/C(NCc1cccnc1)=C(\C#N)C(=O)NCc1ccccc1
 : 2.5% | 10% | -7% | -2% | 26% | 9% | -5% | 9%
O=C1NCCCc2c1no[n+]2[O-]
 : 3.6% | 11% | 5% | 3% | -1% | 5% | 4% | -13%
CC(NC(=O)c1ccc2c(c1)N(Cc1ccc(Cl)cc1)C(=O)CS2)c1ccccc1 (stereo not drawn)
 : -2.9% | 14%[46.1 µM] | -17% | . | 1%[46.1 µM] | ? | . | .
Cc1nnc(NC(=O)c2cccc(S(=O)(=O)N3CC(c4ccccc4)CC3=O)c2)s1 (stereo not drawn)
 : 4.2% | . | -7% | 0% | -7% | 10% | -6% | 0%
CC(C)(C)NC(=O)c1ccccc1-c1nc2ccccc2s1
 : . | . | 0% | 2% | . | . | ? | 0%
CCCC(=O)Nc1ccc(S(=O)(=O)Nc2cc(OC)ncn2)cc1
 : . | . | 17% | -6% | . | . | -2% | -1%
Cc1ccc(NC(=O)CCCN2C(=O)c3cccc4cccc(c34)C2=O)cc1
 : -3.0% | ? | ? | 14% | -20% | 1% | -2% | -2%
CC(=O)Nc1ccccc1C(=O)C(=O)Nc1ccc(C)c(F)c1
 : -4.2% | -4% | 44%[activator] | ? | ? | ? | ? | ?
